Screens from PubChem BioAssay.
gsp antagonist = antagonizes gsp, the McCune-Albright syndrome mutation; gsp-mutant cells, cAMP HTRF, 30 min; control for the full effect not named in the record; 0.4% of 340,000 active; AID 624288; Potency, µM (titrated, usually from 76.9 µM), without a hit: at the top dose activity change, negative = inhibition, hits mostly inhibitors; active = falling curve of any shape with a large fitted effect; inconclusive = falling curve, mostly with a smaller effect; inactive = flat or rising curve; cell line not stated here;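 also: intracellular cAMP measured with PDE inhibitor Ro 20-1724 present during compound exposure; potency is read from the fitted curve at half-maximal effect; % is scaled to controls: 0 for no effect and ±100 for the full control effect; nearly all actives have a fitted effect of over 65% in size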
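G418-selected cells were plated in DMEM/10% FBS for 16-24 h at 37C, then treated with compounds plus the PDE inhibitor […] (300 uM solution added) for 30 min at 37C. Intracellular cAMP was measured by HTRF after 30 min lysis at room temperature.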
TRPML1 blocker = inhibitors of human TRPML1 channel; Q9GZU1; TRPML1-inducible cells, Ca2+ dye fluorescence, FDSS; hits give low values; inhibition of EC80 agonist-evoked calcium signal; activity change, negative = inhibition, % (test concentration not listed); 0.02% of 390,000 active; in the data active means activity change below about -50%; inconclusive means about -30% to -50%; inactive means above about -30%;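 also: stimulus is agonist 54-4 at its EC80 concentration; % is scaled to controls: 0 for no effect and ±100 for the full control effect; compound concentration not given in the record; the text of the record puts the active cut at -80%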
Target sequence (Q9GZU1 whole entry, looked up): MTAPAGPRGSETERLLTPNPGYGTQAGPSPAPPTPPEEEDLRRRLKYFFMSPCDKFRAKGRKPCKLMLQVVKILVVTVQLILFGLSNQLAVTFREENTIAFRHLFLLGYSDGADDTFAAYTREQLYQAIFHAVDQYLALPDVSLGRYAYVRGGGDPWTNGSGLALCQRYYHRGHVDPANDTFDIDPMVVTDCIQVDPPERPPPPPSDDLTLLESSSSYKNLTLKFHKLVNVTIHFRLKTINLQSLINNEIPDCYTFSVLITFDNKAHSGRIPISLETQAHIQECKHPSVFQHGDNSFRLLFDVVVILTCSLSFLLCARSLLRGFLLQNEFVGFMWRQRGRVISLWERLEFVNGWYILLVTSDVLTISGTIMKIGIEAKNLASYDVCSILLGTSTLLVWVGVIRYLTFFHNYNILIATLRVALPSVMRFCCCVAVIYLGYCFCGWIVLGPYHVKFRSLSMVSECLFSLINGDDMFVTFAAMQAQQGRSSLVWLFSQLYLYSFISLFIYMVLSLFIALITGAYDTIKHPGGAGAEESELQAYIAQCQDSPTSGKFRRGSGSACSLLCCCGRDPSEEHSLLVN
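TRPML1-DL cells, Tet-induced overnight (~16 h, 37 °C) at 1,500 cells/well, were loaded with Ca8 no-wash dye plus quencher for 45-90 min at room temperature. Compounds were pinned during FDSS kinetic reading; agonist 54-4 at EC80 (4 uM final) then added.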
Menin-MLL FL inh = displaces fluorescein MLL peptide from human menin | Fluorescence polarization, fluorescein-MLL peptide displacement from menin | FP activity change, % at 61.4 µM | 290,000 tested, under 10 active | AID 1766; inconclusive = falling polarisation curve, or a change in total fluorescence; inactive = total fluorescence flat and polarisation flat or rising; no compound was filed as active; the % refers to the polarisation; negative = inhibition;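 also: % of control where 0% means no effect; inhibitors lower the polarisation; unlabelled MLL peptide was the positive control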
ClpP mod = qHTS Assay for Activators of ClpP; ATP-dependent Clp protease proteolytic subunit (Bacillus subtilis (strain 168)), P80244; purified B. subtilis ClpP, FRET peptide cleavage, 20 min; Potency, µM (series often up to 57.5 µM), inactives show at the top dose activity change, negative = active; 1.9% of 340,000 active; active = well fitted falling curve with a large enough effect; inconclusive = small, poorly fitted or top-dose-only effect; inactive = no such curve, though single readings can be large or run the other way; also: potency is read from the fitted curve at half-maximal effect; the source files actives as falling curves though it sought activators and does not explain the sign; nearly all actives have a fitted effect of over 65% in size; many hits overshoot -100%
Target sequence (P80244 whole entry, looked up): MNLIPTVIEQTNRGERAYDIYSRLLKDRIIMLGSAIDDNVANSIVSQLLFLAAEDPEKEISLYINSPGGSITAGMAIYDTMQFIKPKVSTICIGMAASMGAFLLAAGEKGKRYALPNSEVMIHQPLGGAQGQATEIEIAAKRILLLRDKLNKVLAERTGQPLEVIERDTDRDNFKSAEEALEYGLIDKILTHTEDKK
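FRET quenching reversal measured ClpP activation: 10 microg/mL B. subtilis ClpP at pH 8 with the FRET-FV decapeptide, read at 430 nm after 320 nm excitation. The 20-min minus 0-min signal was scaled between DMSO/no-enzyme wells and ADEP (5.8 microM final).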
gsp agonist = activates gsp, the McCune-Albright syndrome mutation; gsp mutant cells, cAMP HTRF, 30 min; control for the full effect not named in the record; Potency, µM (highest dose often 76.9 µM), for the others: at the top dose activation (cAMP increase), actives largely listed as activators; 0.13% of 340,000 active; active = well fitted activation curve with a large enough effect; inconclusive = small, poorly fitted or top-dose-only effect, or another doubt; inactive = no such curve, though single readings can be large or run the other way; cell line not stated here;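 also: phosphodiesterase inhibitor Ro 20-1724 added with compounds to block cAMP breakdown; potency is read from the fitted curve at half-maximal effect; nearly all actives have a fitted effect of over 60% in size; about a fifth of the inactives were tested at one dose only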
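Cells stably selected in G418 were plated at 2000/well, grown 16-24 hr, then given compounds in DMSO with the PDE inhibitor […] (300 uM solution added) for 30 min at 37C; cAMP was read by HTRF.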
TRPML1 agonist = activates the human TRPML1 channel; Q9GZU1; TRPML1-expressing cells, Ca2+ dye fluorescence, FDSS; host cell line not named in the record; reference of the full effect not given here; activation, % (concentration not given with the values); 0.12% of 410,000 active; in the data active = activation above about 50%; inconclusive = about 30% to 50%; inactive = below about 30%; also: 0% is about no effect; the text of the record puts the active cut at 80%
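Calcium fluorescence on an FDSS kinetic reader gave the read-out. Tet-induced TRPML1-DL cells were plated overnight, dye-loaded (Ca8 with quencher, 45-90 min, room temperature, dark), then read 110 s after compound addition, and again 110 s after 4uM final 54-4 (EC80).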
Active calls of the source: *; ? = inconclusive; . = no result given; [ ] = another dose, or the depositor's remark.

Structure	gsp antagonist	ClpP mod	Menin-MLL FL inh	TRPML1 blocker	gsp agonist	TRPML1 agonist
CCCCCc1nnc(NC(=O)c2ccc3nc[nH]c3c2)s1	7.1%	-4.8%	.	2.3	-2.0%	0.4
O=C(CSc1nnnn1-c1ccccc1)Nc1ccccc1	0.7%	-2.0%	-1.5	-0.8	0.0%	0.7
CCCN1C(=O)c2ccccc2CC1(C)C(=O)NC1CCCCC1 (configuration not stated)	.	1.5%	.	6.4	.	0.0
CC(C)C[C@@H]1NC(=O)[C@H](CO)NC(=O)c2cc([N+](=O)[O-])cc(I)c2OCC[C@@H](C(N)=O)NC1=O	2.2%	1.7%	1.5	30.8	?	-0.6
Cc1nn(C)c(C(=O)N/N=C/c2cccnc2)c1Cl	5.1%	-0.8%	.	-12.7	-41.9%[inhibitor]	1.0
Cc1onc(-c2ccccc2)c1C(=O)N1CCN(c2ccc([N+](=O)[O-])cc2)CC1	-0.4%	1.4%	.	19.8	-64.8%[inhibitor]	-0.3
Cc1cc(=O)[nH]c(SCC(=O)Nc2nnc(CC(C)C)s2)n1	1.8%	-2.4%	1.3	20.2	2.1%	0.2
CCCCOC(=O)c1ccc(NC(=O)COC(=O)C2CSC3(C)CCC(=O)N23)cc1 (configuration not stated)	-17.4%	1.6%	.	61.6	-70.1%[inhibitor]	0.1
Cc1c(Cl)cccc1NC(=O)CCCCCN1C(=O)CCC1=O	6.8%[15.4 µM]	0.8%	0.7	-11.0	?	2.4
COc1cc(C=O)ccc1OCC(=O)Nc1ccc2c(c1)OCO2	-7.3%	-4.3%	.	-1.7	-52.9%	0.2
O=C(c1cccc(S(=O)(=O)Nc2ccccc2Cl)c1)N1CCN(C(=O)c2ccco2)CC1	-19.1%	-1.8%	1.2	15.4	-4.9%	0.5
O=C(c1ccncc1)N1CCN(S(=O)(=O)c2cccc(Cl)c2)CC1	3.0%	3.16µM*	.	-1.9	6.9%	-0.8
O=C(COC(=O)CNC(=O)c1ccccc1)Nc1ccc(S(=O)(=O)N2CCCC2)cc1	-0.8%	.	-2.3	-21.7	3.8%	0.2
COc1cccc(Cl)c1NC(=O)N1CCN(c2ccnc3cc(Cl)ccc23)CC1	?	?	1.8	10.7	-15.1%	3.3
CC(=O)Nc1cccc(OCC(=O)Nc2ccccc2)c1	6.0%	0.0%	9.4	19.5	?	0.3
N#CC12COC3(CCCCC3C1(C#N)C#N)OC2=N (configuration not stated)	-4.6%	-2.3%	?	0.6	-7.9%[15.4 µM]	-0.1
CCS(=O)(=O)N1CCN(c2ccc(C(=O)NC3C4CC5CC(C4)CC3C5)cc2[N+](=O)[O-])CC1 (configuration not stated)	-3.5%	25.1µM*	2.2	19.3	3.5%	0.9
CC1CC(C)CN(CCCNC(=O)Cc2c(C(=O)O)[nH]c3ccccc23)C1 (configuration not stated)	-7.5%	?	3.5	?	?	-0.1
COc1ccc(S(=O)(=O)N2CCN(CC(=O)Nc3ccccc3Cl)CC2)cc1	-19.2%	-1.7%	.	5.4	?	1.3
Cc1ccc2nc(CSc3nnc(NC(=O)c4cccc(Br)c4)s3)cc(=O)n2c1	.	-5.4%	.	17.6	.	0.8
Cc1ccc(S(=O)(=O)N2CCOCC2)cc1C(=O)N1CCN(c2ncccn2)CC1	7.9%	?	.	3.4	20.2%	-0.1
COC(c1ccccc1)c1nnc(CCC(=O)NCCc2ccc(Cl)cc2)o1 (configuration not stated)	0.2%	0.7%	-1.7	2.1	12.2%	2.1
CNc1nc(N)c([N+](=O)[O-])c(NCCO)n1	-4.3%	1.0%	-1.4	6.2	24.7%[15.4 µM]	-0.2
Cc1cccc(NC(=O)c2ccc3c(c2)OCCO3)c1	-9.8%	.	-15.7	31.0	-3.3%	2.4
COc1cccc(/C=N/NC(=O)C(=O)N2CCCC2)c1O	-6.5%	0.9%	5.6	-7.2	-14.7%	-0.3

Remaining list, next part.
Structure	gsp antagonist	ClpP mod	Menin-MLL FL inh	TRPML1 blocker	gsp agonist	TRPML1 agonist
COc1cc2ccccc2cc1C(=O)N/N=C/c1cccs1	.	-11.2%	.	6.8	-54.2%[inhibitor]	-0.1
CCCc1cc(C(=O)N2CCN(c3ccc(C(F)(F)F)cn3)CC2)sc1C	-21.9%	.	-1.1	22.6	6.1%[15.4 µM]	1.2
COc1ccc(-c2nn(CC(=O)Nc3ccccc3F)c3c2cnc2ccc(F)cc23)cc1	.	-19.6%	.	22.7	.	0.7
CN(C)c1ccc(C#Cc2ccc3cc(CCCO)oc(=O)c3c2)cc1	11.9%	0.6%	.	22.6	11.5%	-0.1
Cc1c(Cl)c([N+](=O)[O-])nn1CC(=O)Nc1c(C)n(C)n(-c2ccccc2)c1=O	9.5%[15.4 µM]	-0.6%	5.9	?	?	0.2
C/C(CC(=O)Nc1ccc(N(C)C)cc1)=N\NC(=O)c1ccc([N+](=O)[O-])cc1Cl	-20.4%	25.1µM*	-4.8	7.1	2.2%[15.4 µM]	-1.2
COC(=O)C1(C)NC(c2ccco2)C2C(=O)N(c3ccc(C)cc3)C(=O)C21 (configuration not stated)	6.9%	-0.1%	-0.4	-15.4	-1.4%	-0.1
CC(C(=O)NCc1ccccc1)N1CCN(c2ccc(F)cc2)CC1 (configuration not stated)	7.2%	-1.1%	-0.4	-23.2	14.5%	-0.6
Cc1cc(S(=O)(=O)N2CCN(c3ncccn3)CC2)ccc1-n1cnnn1	-9.5%	-12.6%	1.1	-2.2	-22.7%	0.9
O=C(O)CCN1C(=O)C2C3c4ccccc4C(c4ccccc43)[C@@H]2C1=O (some centres not stated)	0.6%	-2.8%	0.3	16.0	-4.3%	-0.4
CNc1nc(Nc2ccccc2)nc(OCC(F)(F)F)n1	-0.3%	.	-4.6	-10.3	3.5%[15.4 µM]	2.3
CCCCc1cc(=O)oc2cc(C)cc(OC(C)C(=O)O)c12 (configuration not stated)	-12.3%	15.8µM*	-2.0	-4.7	25.6%	-0.4
Cc1c(/C=C(\C#N)C(=O)NCc2ccccc2)cc(C#N)n1C	-5.5%	.	-1.0	25.4	-9.4%[15.4 µM]	-0.2
Cc1nc2ccccc2nc(C)c1=NOCc1ccccc1Cl	-1.1%	?	-2.8	-4.9	-7.7%	-0.1
Cc1ccccc1C(=O)N1CCC(C(=O)NC2CCCCC2)CC1	-0.6%	.	-8.9	-7.3	0.3%	0.1
Cc1ccc(-c2nnnn2-c2ccc(C)cc2)cc1	-14.1%	.	0.4	-3.3	-3.6%[15.4 µM]	0.2
COc1ccc(-c2csc(NC(=O)CCCc3cccs3)n2)cc1	-11.5%	-0.5%	0.0	9.9	-25.2%	-0.4
CCn1ncc2c1C(=O)NC1c3ccccc3C(=O)N21 (configuration not stated)	14.4%	-0.9%	1.5	1.0	?	-0.9
COC(=O)c1ccc(C(=O)OC)c(NC(=O)C2CC2)c1	10.2%	?	4.7	31.2	-9.8%	1.6
Cc1ccc(CN2CCC(n3nccc3NC(=O)c3ccccc3C)CC2)o1	1.8%	-1.1%	-1.3	8.6	-4.3%[15.4 µM]	0.7
Cn1cccc1C(=O)OCc1ccc(C(C)(C)C)cc1	3.8%	.	0.5	-8.7	-25.1%[15.4 µM]	0.3
NC1(CO)COC(c2ccccc2)OC1 (configuration not stated)	.	-0.8%	.	-6.3	-7.0%	0.3
CC(=O)Nc1ccc(NC(=O)CCCN2C(=O)c3ccccc3C2=O)cc1	3.7%	-0.3%	-2.3	-3.9	2.2%[15.4 µM]	-0.3
O=C(NCCCN1CCCC1=O)NC12CC3CC(CC(C3)C1)C2	10.0%	-0.5%	0.5	-13.1	6.7%	-0.3
Cc1cc(S(=O)(=O)NCC(c2ccc(F)cc2)N2CCN(C)CC2)ccc1F (configuration not stated)	12.8%	.	.	30.0	0.4%[15.4 µM]	0.9

Further structures follow:
Structure	gsp antagonist	ClpP mod	Menin-MLL FL inh	TRPML1 blocker	gsp agonist	TRPML1 agonist
Cc1cc(C)n(C(=O)c2cc([N+](=O)[O-])cc([N+](=O)[O-])c2)n1	0.2%	-0.8%	4.2	16.7	-17.6%	-0.4
COc1ccc(-c2ocnc2C(=O)N2CCN(Cc3cccnc3)CC2)cc1	2.7%	-26.1%	0.8	-2.1	-11.4%	-0.8
COc1ccccc1NC(=O)CN1CCN(C2c3ccccc3-c3ccccc32)CC1	-13.6%	-2.8%	-0.4	35.5	-69.9%[inhibitor]	1.4
Cc1ccc(C(=O)Nc2ccc3c(c2)N(C)C(=O)c2ccccc2S3)cc1F	.	?	.	-0.9	.	2.2
Cc1cc(C(=O)N/N=C/c2ccc(O)c(O)c2O)c(C)n1-c1ccccc1	-10.5%	0.9%	5.6	1.3	-47.7%[inhibitor]	-0.8
COc1ccc(CNC(=O)CN2C(=O)NC(C)(c3cccc(Br)c3)C2=O)cc1 (configuration not stated)	1.1%	-0.2%	-1.5	-21.8	14.1%	0.8
CC1CN=C(N(Cc2ccccc2)C(=O)Nc2ccccc2)S1 (configuration not stated)	11.4%	0.8%	3.9	-15.3	2.5%	1.5
CN1C(=O)C2(OCC(CO)([N+](=O)[O-])CO2)c2ccccc21 (configuration not stated)	-5.3%	-3.4%	-0.6	-25.1	?	0.6
CCOC(=O)Cn1cc(/C=N/NC(=O)CC#N)c2ccccc21	-3.2%	.	2.7	5.2	18.4%[15.4 µM]	1.7
O=C(/C=C/c1cccc(F)c1)Nc1ccc(S(=O)(=O)Nc2ncccn2)cc1	-6.8%	.	6.5	2.1	3.2%[15.4 µM]	0.3
O=C(NCc1cccc(Br)c1)C1CC(c2cc(C(F)(F)F)cc(C(F)(F)F)c2)=NO1 (configuration not stated)	-4.5%	1.7%	.	-5.6	17.8%	-0.2

3 compounds out of the list, arranged by length of the SMILES, ascending.
Structure	gsp antagonist	ClpP mod	Menin-MLL FL inh	TRPML1 blocker	gsp agonist	TRPML1 agonist
CCCCCc1nnc(NC(=O)c2ccc3nc[nH]c3c2)s1	7.1%	-4.8%	.	2.3	-2.0%	0.4
COC(=O)c1ccc(C(=O)OC)c(NC(=O)C2CC2)c1	10.2%	?	4.7	31.2	-9.8%	1.6
CCCCOC(=O)c1ccc(NC(=O)COC(=O)C2CSC3(C)CCC(=O)N23)cc1 (configuration not stated)	-17.4%	1.6%	.	61.6	-70.1%[inhibitor]	0.1
